miR-21 reporter: raises the signal of a miR-21 reporter; HeLa miR-21 FLuc reporter, luciferase, 48 h; Potency, µM (series often up to 38.3 µM), without a hit: at the highest dose reporter change, positive = more light; 340,000 tested, under 10 active; AID 2288; active = well fitted rising curve with a large enough effect; inconclusive = small, poorly fitted or top-dose-only effect; inactive = no such curve, though single readings can be large or run the other way;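 also: % of control where 0% means no effect; miR-21 action dims this reporter so a rising signal means less miR-21 action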
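HeLa cells stably expressing CMV-driven firefly luciferase with a downstream miR-21 binding sequence, endogenously expressing miR-21, were treated with titrations (up to about 40uM final) for 48 hours at 37 degree Celsius. Luciferase luminescence was read after lysis.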
GLA inh pH 4.5: inhibitors of human alpha-galactosidase A at pH 4.5 | 230,000 tested, under 10 active | purified enzyme, 4-MU-alpha-Gal fluorescence, pH 4.5 | activity change, negative = inhibition, % at 105 µM; inconclusive = small, poorly fitted or top-dose-only inhibition, or a rising curve; inactive = flat fitted curve, though single readings scatter; no compound was filed as active;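 also: 0% = full activity with enzyme and -100% = basal without enzyme; dose as in the result columns while the protocol names 77 µM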
Rango complex inh: Rango-importin beta binding inhibition; 340,000 compounds, 0.031% hits; Rango CFP/YFP FRET sensor + importin beta, 45 min; AID 540263; Potency, µM (titrated, usually from 92.2 µM), without a hit: top-dose inhibition of complex formation; active = rising FRET ratio curve, often small or poorly fitted; inconclusive = mostly compound fluorescence or quenching in the first reads; inactive = flat curves in all reads;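 also: potency is read from the fitted curve at half-maximal effect; 0% = DMSO wells and 100% = buffer wells lacking importin beta; nearly all actives have a fitted effect of over 15% in size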
Target sequence (Q14974 whole entry, looked up): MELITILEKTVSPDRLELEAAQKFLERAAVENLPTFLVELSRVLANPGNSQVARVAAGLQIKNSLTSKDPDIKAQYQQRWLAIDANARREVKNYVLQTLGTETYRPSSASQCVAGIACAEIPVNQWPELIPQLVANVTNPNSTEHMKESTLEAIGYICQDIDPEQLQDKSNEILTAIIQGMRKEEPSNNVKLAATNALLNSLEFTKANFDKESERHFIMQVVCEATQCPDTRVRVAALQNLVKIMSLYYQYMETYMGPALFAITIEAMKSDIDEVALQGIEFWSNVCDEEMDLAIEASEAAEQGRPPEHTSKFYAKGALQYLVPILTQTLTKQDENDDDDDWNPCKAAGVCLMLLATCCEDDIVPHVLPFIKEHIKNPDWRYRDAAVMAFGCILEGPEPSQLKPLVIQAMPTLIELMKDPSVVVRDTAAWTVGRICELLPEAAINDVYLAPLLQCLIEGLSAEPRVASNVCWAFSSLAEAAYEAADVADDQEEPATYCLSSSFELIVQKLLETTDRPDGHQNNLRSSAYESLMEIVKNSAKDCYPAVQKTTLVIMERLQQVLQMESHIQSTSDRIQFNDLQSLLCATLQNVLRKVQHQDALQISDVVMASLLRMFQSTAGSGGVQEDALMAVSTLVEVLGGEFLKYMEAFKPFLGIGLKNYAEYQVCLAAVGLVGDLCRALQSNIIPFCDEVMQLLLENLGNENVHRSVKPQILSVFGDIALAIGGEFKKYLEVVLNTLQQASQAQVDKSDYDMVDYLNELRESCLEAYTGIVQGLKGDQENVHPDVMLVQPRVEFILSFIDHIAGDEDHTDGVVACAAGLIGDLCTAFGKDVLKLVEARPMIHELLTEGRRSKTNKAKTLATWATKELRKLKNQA
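FRET biosensor (snurportin 1 IBB flanked by EYFP and cerulean), 50 nM, with compound 5 min, then 0.125 microM importin beta in PBS, 1 mM DTT, 0.02% Tween-20, 0.1% BSA. CFP/YFP ratio read after 45 min at room temperature; pre-read flags interference.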
Rango dissoc inh: prevents RanGTP from dissociating the Rango-importin beta complex. O95149+P62826. Biochemical FRET Rango-importin beta, RanGTP-induced dissociation. Potency, µM (top dose mostly 46.1 µM), inactives show at the top dose activity change, negative = inhibition. 340,000 compounds, 0.071% hits. AID 540253; active means falling FRET ratio curve, often poorly fitted, with flat reads before Ran was added; inconclusive means other falling curves, or compound fluorescence or quenching; inactive means flat or rising ratio curve;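 also: potency is read from the fitted curve at half-maximal effect; % of control where 0% means no effect; nearly all actives have a fitted effect of over 45% in size; -100% = wells without RanGTP and RCC1; the record marks most hits as doubtful in a second field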
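FRET read at 45 min, room temperature: inhibitors block the CFP/YFP signal rise when RanGTP (0.6 uM Ran, 2 mM GTP, 0.2 uM RCC1) frees Rango (0.1 uM) from importin beta (0.25 uM). Pre-read after 5 min compound exposure flags interference.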
Numbers without * were called inactive; ? = inconclusive; . = no result given; [ ] = remark or other dose. These rows are one share of the data. The share of hits here may be higher or lower than overall.

SMILES	miR-21 reporter	GLA inh pH 4.5	Rango complex inh	Rango dissoc inh
O=C(Cc1ccc(NC(=O)C2CCN(C(=O)c3ccccc3)CC2)cc1)Nc1cccc(C(=O)N2CCCCC2)c1	.	.	0.9%	?
O=C(/C=C/c1cccc2ccccc12)N1CCOCC1	-71%	-29	0.9%	-6%
Cc1sc2nc(CSC(C)C(=O)Nc3ccccn3)[nH]c(=O)c2c1C (configuration not stated)	.	.	?	-22%
CCC(C)(C)n1nnnc1C(c1cc2cc3c(cc2[nH]c1=O)OCO3)N1CCN(C)CC1 (configuration not stated)	-1%	?	?	-19%
Cc1nnc(SCc2nnc(-c3cccs3)o2)n1C1CCCCC1	-10%	3	-1.7%	-2%
O=C(NCc1ccccn1)c1cc(-c2ccccc2Cl)on1	-58%	-5	-1.9%	1%
CCc1nnc(NC(=O)CSc2nc3ccccc3o2)s1	-7%	11	-2.5%	4%
Cc1ccccc1CN1CCN(CC(=O)NCc2ccc3c(c2)OCO3)C1=O	0%	6	5.2%	-4%
Cn1ncc(Cl)c1C(=O)NC1CCCC1	0%	.	16%	8%
CCN1CCCC1CNC(=O)C(=O)Nc1ccccc1 (configuration not stated)	-42%	6	-3.0%	0%

Given with bars between the fields: 2 of the compounds above.
Compound | miR-21 reporter | GLA inh pH 4.5 | Rango complex inh | Rango dissoc inh
CCc1nnc(NC(=O)CSc2nc3ccccc3o2)s1 | -7% | 11 | -2.5% | 4%
O=C(NCc1ccccn1)c1cc(-c2ccccc2Cl)on1 | -58% | -5 | -1.9% | 1%

Remaining list, next part
SMILES	miR-21 reporter	GLA inh pH 4.5	Rango complex inh	Rango dissoc inh
O=S(=O)(c1ccc2nc(COc3ccccc3)[nH]c2c1)N1CCOCC1	-8%	5	-0.2%	13%
COc1cccc(-c2nnc(-c3ccc(C(F)(F)F)cc3)o2)c1OC	-32%	-5	-1.1%	1%
O=C(Cn1cnc2ccccc21)Nc1ccc(SC(F)F)cc1	10%	1	?	33%
CC(=O)c1ccccc1OCC(O)CN1CCN(C(c2ccccc2)c2ccccc2)CC1 (configuration not stated)	23%	-3	-0.1%	-6%
CCCCNc1oc(-c2ccc(OC)cc2)nc1S(=O)(=O)c1ccccc1	-9%	-1	-1.1%	0%
CC(NC(=O)Cn1cnc([N+](=O)[O-])n1)c1ccccc1 (configuration not stated)	1%	5	-2.5%	-11%
CCCCN(CC)Cc1ccc(CNC(=O)Nc2ccc(OCC)cc2)o1	-3%	-1	1.4%	1%
CN(C)c1ccc(/C=N/NC(=O)CNC(=O)/C=C/c2ccccc2)cc1	-36%	.	1.1%	-4%
COC(=O)C1=C(C)NC(C)=C(C(=O)OC)C1c1ccc2ccccc2n1	-3%	-9	?	-8%
O=P(CCc1ccccc1)(c1ccccc1)c1ccccc1	.	.	1.8%	1%
CCN(C(=O)c1nn(-c2ccc(OC)cc2)c(=O)c2c1c1ccccc1n2C)c1ccc(OC)cc1	3%	-5	-1.2%	7%
O=S(=O)(NCc1ccncc1)c1ccc(S(=O)(=O)NCC2CCCO2)cc1 (configuration not stated)	7%	-3	-0.7%	0%
Cc1ccc(NC(=S)c2ccc(N(C)C)cc2)cc1	-53%	2	?	-7%
CCCCc1ccc(N=N/C(C(=O)Nc2cc(OC)c(NC(C)=O)cc2OC)=C(/C)O)cc1	-3%	-2	-4.3%	16%
O=C(O)c1ccc(S(=O)(=O)c2ccc3c(c2)C(=O)N(NC(=O)c2ccc(O)cc2)C3=O)cc1	-30%	1	0.4%	-14%
O=C(NC1CCCCC1)C(c1ccncc1)N(CC1CCCO1)C(=O)C(F)(F)F (configuration not stated)	5%	2	?	-14%
CCNC(=O)CCc1nc(-c2ccc(C)cc2)no1	-21%	-3	4.3%	-8%
O=C(/C=C/c1ccc2c(c1)OCO2)NC1CCCC1	-23%	.	0.1%	-2%
O=C1CC(C(=O)N(CC2CCCO2)C(C(=O)NC2CCCCC2)c2ccncc2)CS1 (configuration not stated)	-10%	-5	1.5%	-2%
Cc1ccc(Nc2nc(N)nc(CN3CCN(c4ccccc4)CC3)n2)cc1Cl	-1%	-7	0.2%	-15%
Cc1cc(C(=O)NNC(=O)c2ccccc2F)c2ccccc2n1	.	.	0.1%	-9%
O=C(CCN1C(=O)c2ccccc2S1(=O)=O)Nc1cc(Cl)ccc1Cl	.	.	2.6%	1%
CN(C)S(=O)(=O)c1cccc(NC(=O)c2cncc(Br)c2)c1	-18%	2	-0.3%	15%
COc1ccc(CN=Cc2c(C(F)(F)F)[nH][nH]c2=O)cc1	-4%	-2	0.4%	7%
O=C(/C=C/C(=O)NCc1cccs1)NCc1cccs1	-1%	0	4.7%	30%
CCOC(=O)c1c(C)c(C(=O)Nc2ccccc2)c(C)n1CC	-38%	-1	-0.9%	19%
COc1cc2[nH]c(=O)n(Cc3ccc(C(=O)NC4CCN(Cc5ccccc5)CC4)cc3)c(=O)c2cc1OC	-4%	-12	2.2%	16%
COc1cc(-c2noc(C)c2C#Cc2nccn2C)cc(OC)c1OC	10%	.	-0.9%	8%
Cc1ccc(NC(=O)NC(=S)NC(=O)c2ccccc2)cc1	-20%	-1	-2.1%	9%
Cc1ccc(SCC(=O)NC(=O)Nc2ccc3c(c2)OCCO3)cc1C	-4%	5	0.2%	0%

Exported as labelled records: entries from further up.
COC(=O)C1=C(C)NC(C)=C(C(=O)OC)C1c1ccc2ccccc2n1
  miR-21 reporter: -3%	GLA inh pH 4.5: -9	Rango complex inh: ?	Rango dissoc inh: -8%
O=P(CCc1ccccc1)(c1ccccc1)c1ccccc1
  miR-21 reporter: .	GLA inh pH 4.5: .	Rango complex inh: 1.8%	Rango dissoc inh: 1%
CCN(C(=O)c1nn(-c2ccc(OC)cc2)c(=O)c2c1c1ccccc1n2C)c1ccc(OC)cc1
  miR-21 reporter: 3%	GLA inh pH 4.5: -5	Rango complex inh: -1.2%	Rango dissoc inh: 7%
O=S(=O)(NCc1ccncc1)c1ccc(S(=O)(=O)NCC2CCCO2)cc1 (configuration not stated)
  miR-21 reporter: 7%	GLA inh pH 4.5: -3	Rango complex inh: -0.7%	Rango dissoc inh: 0%

Other results.
SMILES	miR-21 reporter	GLA inh pH 4.5	Rango complex inh	Rango dissoc inh
COCCCNC(=O)CN(c1cccc(Cl)c1C)S(C)(=O)=O	0%	-8	0.4%	-2%
Cc1cn(C2CC(OC(=O)C(C)C)C(CO)O2)c(=O)[nH]c1=O (configuration not stated)	.	.	-0.7%	-2%
CCOC(=O)Cn1c(=NC(=O)c2ccc([N+](=O)[O-])s2)sc2ccccc21	-5%	-5	-1.2%	-8%
N#C/C(=C/C1=C(N2CCOCC2)C(=C/c2ccccc2)/CC1)C(=O)Nc1ccccc1F	.	.	?	-18%
O=C(C1CC(=O)N(c2ccccc2)C1)N1CCN(c2ccccc2F)CC1 (configuration not stated)	-4%	.	-2.7%	-2%
N#CC1(NC(=O)Cn2cc(C(F)(F)F)ccc2=O)CCCC1	.	.	6.2%	-11%
Cc1nnc(NC(=O)CN2C(=O)c3ccccc3S2(=O)=O)s1	2%	-8	-3.7%	40%
CC(C)(CCO)Nc1ncnc2onc(-c3ccc(F)cc3)c12	-11%	.	-0.2%	4%
NS(=O)(=O)c1ccc(NC(=O)CSc2nc(Nc3ccccc3)nc(N3CCOCC3)n2)cc1	-10%	.	5.4%	-5%
O=C(c1cc(COc2ccc(F)cc2F)on1)N1CC[C@@H]2CCCC[C@H]2C1	-3%	.	-0.3%	4%
COC(C[C@H](O)C[C@@H](O)[C@@H](C)OCc1ccccc1)OC	2%	0	-8.1%	16%
Cc1ccccc1CS(=O)(=O)CC(O)CN1CCCC1=O (configuration not stated)	2%	.	-1.1%	46%
Cc1c(CCOC(=O)C23CC4CC(CC(C4)C2)C3)sc[n+]1Cc1ccccc1	8%	-5	0.0%	-3%
O=C(CSc1n[nH]c(-c2ccccn2)n1)Nc1ccc(F)cc1	?	.	-2.1%	31%
Cc1ccc2nc(NCC(=O)O)nc(-c3ccccc3)c2c1	-3%	0	?	?
CCn1c(SCC(=O)c2ccccc2)nnc1-c1cnccn1	-44%	-7	0.7%	-1%
COc1cc(Cl)c(C)cc1NC(=O)CSc1ccc(NC(C)=O)cc1	-13%	0	7.2%	1%
COc1ccc(CNC(=O)C2CCCN2CCc2ccccc2)cc1OC (configuration not stated)	6%	7[21.1 µM]	2.0%	8%
O=C(COc1ccccc1)N1CCN(C(=O)c2ccc([N+](=O)[O-])cc2)CC1	-27%	0	-0.7%	-17%
COc1ccc(CNC(=O)C(OC(=O)c2ccco2)c2ccccc2F)cc1 (configuration not stated)	-11%	.	-0.7%	-5%
Cc1ccc(CNC(=O)Cc2ccc(Br)cc2)cc1	8%	.	11%	21%
CCCCN(CCCNC(=O)CN1C(=O)COc2ccc(S(=O)(=O)N3CCC(C)CC3)cc21)Cc1ccccc1	0%	.	0.6%	18%
C=CCN(c1ccccc1)S(=O)(=O)c1cc2c(cc1C)NC(=O)CO2	-1%	.	-0.3%	0%
COc1ccc(C2(c3ccc(OC(C)=O)cc3OC(C)=O)CC(c3ccccc3)NC(=S)N2)cc1 (configuration not stated)	1%	-2	1.0%	3%
Cc1ccc(C(=O)COC(=O)COc2ccccc2[N+](=O)[O-])s1	.	.	0.0%	-13%
CCOC(=O)C1CCN(S(=O)(=O)c2ccc(NC(=O)c3ccco3)cc2)CC1	0%	.	0.1%	-10%
CCOC(=O)C1CCCN(C(=O)c2[nH]c3ccc(OC)cc3c2C)C1 (configuration not stated)	5%	.	1.1%	1%
Cc1ccc2[nH]c3c(c2c1)CN(C(=O)CN1CCCc2ccccc21)CC3	-21%	-12	?	?
O=C(CSc1nnc(SCc2ccccc2Cl)s1)N/N=C/c1ccc(C(=O)O)cc1	-10%	-1	0.2%	0%
COc1ccccc1N1CCN(CC(=O)Nc2cc(C)nn2-c2nc(C)cc(C)n2)CC1	.	.	-2.8%	-9%
CCc1ccccc1N(CC(=O)O)S(C)(=O)=O	2%	-1	-1.0%	2%
Cc1nc(-c2ccncc2)nc(NCCNc2ncccc2C(F)(F)F)c1Cl	-6%	-9	4.5%	-4%
Cc1nc(-c2ccc(Cl)cc2)sc1C1(C)CC(c2ccccc2F)=NO1 (configuration not stated)	-32%	-5	7.5%	11%
C[C@]12CC[C@H](OC(=O)CCC(=O)O)CC1=CCC1C2CC[C@@]2(C)C1CC[C@@H]2N (some centres not stated)	.	.	5.9%	5%
O=C(COC(=O)c1ccccn1)Nc1ccc2c(c1)OCO2	0%	-10	-3.3%	-5%
COc1ccc(-n2nnnc2SCC(=O)NC2CC2)cc1	.	.	-0.8%	-16%
CC1CCCCN1Cc1ccc(-c2nnn(CC(=O)NC3CCCCC3)n2)cc1 (configuration not stated)	0%	-20	?	-9%
c1cc2cc(-c3c(-c4ccc5c(c4)OCO5)noc3-c3ccsc3)ccc2[nH]1	-41%	.	-1.5%	-6%
COc1ccccc1/C=N/NC(=S)NCc1ccco1	4%	1	-2.5%	26%
Cc1cc(C(=O)N(C)C2CCCCC2)no1	-2%	.	1.3%	-28%
CC(C)Oc1cccc(C(=O)C2CCCN(Cc3cnn(C(C)C)c3)C2)c1 (configuration not stated)	-1%	5	0.5%	8%
CCOc1ccc(CCNC(=O)COC(=O)COc2ccc(Cl)cc2)cc1OCC	.	.	-1.1%	-3%
O=C(CCc1nc2ccccc2[nH]1)Nc1ccccc1F	6%	6	-1.1%	27%
COc1ccc(/C(C)=N/NC(=O)OC(C)(C)C)cc1[N+](=O)[O-]	-30%	-4	1.2%	3%
COc1ccccc1C(C)NC(=O)c1cc(S(=O)(=O)N2CCCCC2)ccc1C (configuration not stated)	.	.	0.9%	3%
COc1ccc2c(-c3ccccc3)cc(SCC(=O)N(C)C3CCS(=O)(=O)C3)nc2c1 (configuration not stated)	-5%	0	-1.3%	16%
c1ccc(-c2noc(-c3ccncc3)n2)nc1	-8%	4	-4.6%	11%
COc1ccc(S(=O)(=O)N(CC(=O)NC(C)C)Cc2ccccc2)cc1	0%	6	-0.5%	0%
CCn1c(=O)n(CC)c2cc(N3CCCC3)c(NC(=O)c3cc(Br)ccc3OC)cc21	-5%	.	0.0%	-11%
COc1ccc(N=[N+]([O-])c2ccc(OC)cc2)cc1	.	.	9.8%	-8%
COc1ccc(NC(C)C(=O)N/N=C/c2ccccc2OCc2cccc(Br)c2)cc1 (configuration not stated)	-8%	-11	-0.1%	27%

Screening results as filed in PubChem BioAssay.
